# NPYLR7 ag: mosquito NPYLR7 agonism. HEK293T NPYLR7/Galpha15, GCaMP6s calcium fluorescence. activation, % at 10 µM. 270,000 compounds, 0.15% hits. AID 1259423; in the data active = activation above about 40%;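 note: 0% = vehicle and 100% = reference agonist at the receptor; some compounds past the cut are filed as inactive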
# NPYLR7 ag max-min: also measured in NPYLR7 ag; calls as there; activation, %; measured here: Max-Min RFU normalised activation; some inactives read as strong as hits;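 span of the calcium signal over five minutes; 0% = vehicle and 100% = native peptide agonist; compound fluorescence can raise it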
# Numbers without * were called inactive; & = joins results of further samples. The list is partial; the hit share may differ from the screen's.
# Each structure is followed by: NPYLR7 ag	NPYLR7 ag max-min
CCOC(=O)C1C(c2ccccc2)NC(=S)NC1(O)C(F)(F)F (centres undefined)
  -9	-8
O=C(c1cc(-c2ccccc2F)nc2cc(-c3ccc(Cl)cc3)nn12)N1CCOCC1
  3	14
C=CCn1cc(-c2c(-c3ccccc3)ncn2Cc2nccn2CC)cn1
  2	-4
CC(C)(C)CC(C)(C)c1ccc(OCC(=O)NNC(=O)C(C)(C)C)cc1
  -5	-11
CCc1cc(Oc2ccc3c(c2)OCO3)nc(SCc2cccc([N+](=O)[O-])c2)n1
  -10	-2
O=C(c1cnn2ccccc12)N1C[C@H]2C[C@H](O)[C@H](O)C[C@H]2C1
  5	3
CC(c1ccc(-c2ccc3c(c2)CCC3=O)cc1)N1CCOCC1 (centres undefined)
  -3	-4
CC(C)(C)c1cc(NC(=O)c2ccc(C(F)(F)F)cc2F)n(-c2cc(Cl)ccc2Cl)n1
  6	4
COCC(=O)Nc1ccc(-c2c(-c3ccc4c(c3)OCO4)nn(-c3cc(C)ccc3C)c2OC(C)=O)cc1
  2	11
CN1[C@@H](c2ccccc2)[C@@H](C(=O)NCCn2ccnc2)C[C@@]1(C)C(=O)O
  -4	-5

# Reformatted field by field: entries from further up
molecule: C=CCn1cc(-c2c(-c3ccccc3)ncn2Cc2nccn2CC)cn1
- NPYLR7 ag: 2
- NPYLR7 ag max-min: -4
molecule: CC(C)(C)CC(C)(C)c1ccc(OCC(=O)NNC(=O)C(C)(C)C)cc1
- NPYLR7 ag: -5
- NPYLR7 ag max-min: -11
molecule: CCc1cc(Oc2ccc3c(c2)OCO3)nc(SCc2cccc([N+](=O)[O-])c2)n1
- NPYLR7 ag: -10
- NPYLR7 ag max-min: -2
molecule: O=C(c1cnn2ccccc12)N1C[C@H]2C[C@H](O)[C@H](O)C[C@H]2C1
- NPYLR7 ag: 5
- NPYLR7 ag max-min: 3

# Carrying on:
# Each structure is followed by: NPYLR7 ag	NPYLR7 ag max-min
CC=CC(=O)OCc1nc2c(c(=O)[nH]c(=O)n2CCCC)n1CC
  8	12
COP1(=S)C2=C(N3CCOCC3)CC(C)(C)CC2=Nc2c1c(C)nn2-c1ccccc1 (centres undefined)
  -2	-5
Cc1ccc(-c2nc3sc(CCNS(=O)(=O)c4ccc5ccccc5c4)c(C)n3n2)cc1
  2	1
Cc1cc(Br)c2c(c1)c(N=NC(=O)c1cccnc1)c(O)n2C
  -5	-11
CC(NC(=O)c1cc(C2CC2)nn1-c1ccccc1)c1ccco1 (centres undefined)
  1	1
Cc1ccccc1OCC(O)CN1CCN(Cc2cccs2)CC1 (centres undefined)
  9	5
O=C(c1cc2sccc2[nH]1)N1CCCC(Cn2ccnc2)C1 (centres undefined)
  -4	-9
Cn1cc(C(=O)NCC2CCCO2)c2[nH]c(=O)n(-c3ccccc3)c(=O)c21 (centres undefined)
  9	9
O=C(c1ccc(-c2nc3ccccc3s2)s1)N1CCCCC1
  -2	-3
CC(C)c1nnsc1CN1CCCC2(CC1)CN(C)C(=O)O2 (centres undefined)
  30	15
O=C(c1cc2ccccc2c(=O)o1)N1C[C@H](Oc2ccccn2)[C@H]2C[C@@H]1Cc1c2[nH]c2ccccc12
  14	10
O=C(NCc1ccccc1CN1CCCC1=O)[C@@H]1C[C@@H]2C=C[C@H]1C2
  -1	20
O=C(c1ccc(C(F)(F)F)cc1)N1CCCC(OCc2cccc(OC(F)(F)F)c2)C1 (centres undefined)
  -1	3
O=C1CN(C(=O)C2CC3(CCNCC3)CN2)CCN1CCc1ccccc1 (centres undefined)
  19	4
Cc1cc(C)cc(OCc2nc(CN(C(=O)c3ccc4c(c3)OCO4)C3CC3)cs2)c1
  -8	-10
COc1ccc(CNS(=O)(=O)c2ccc(OC)c3ccccc23)cc1
  7	5
COC(=O)C1CCN(S(=O)(=O)c2cc(Br)ccc2Br)CC1
  5	2
COc1ccc(CNC(C)c2ccccc2)cc1OCc1nc(CO)cs1 (centres undefined)
  0	4
O=C(NC1CCN(c2ccccc2C(=O)NCc2ccco2)CC1)c1ccc([N+](=O)[O-])cc1
  8	20
Fc1cc(F)cc(Oc2ccc3c(C4CC4)noc3n2)c1
  2	0

# Entries of single compounds as entered above:
# Entry for `Cc1cc(C)cc(OCc2nc(CN(C(=O)c3ccc4c(c3)OCO4)C3CC3)cs2)c1` : NPYLR7 ag: -8; NPYLR7 ag max-min: -10
# Entry for `O=C(NCc1ccccc1CN1CCCC1=O)[C@@H]1C[C@@H]2C=C[C@H]1C2` : NPYLR7 ag: -1; NPYLR7 ag max-min: 20

# More entries
# Each structure is followed by: NPYLR7 ag	NPYLR7 ag max-min
CCS(=O)(=O)Cc1nc2c([nH]1)CC(c1ccc(F)cc1)CNC2=O (centres undefined)
  17	12
Cn1cccc1CNCCSc1nnnn1C
  4	1
CCCCc1ccc(C(=O)N(CC(=O)N2CCc3sccc3C2c2ccccc2C)Cc2ccco2)cc1 (centres undefined)
  -1	-8
CN(Cc1ccc(C#N)cc1)C(=O)CCc1ccc(C(C)(C)C)cc1
  8	4
CN1C(=O)COc2ccc(C(=O)N3C[C@H]4C[C@H](O)[C@H](O)C[C@H]4C3)cc21
  -4	-4
Cc1cc(Nc2ccc3c(n2)C(=O)N(CC(=O)NCC2CCOCC2)C3)n(C)n1
  7	2
CCOC(=O)c1ccc(NC(=O)CSc2nccn3nc(-c4ccccc4OC)cc23)cc1
  0	-1
COc1cccc(CNC(=O)C2CCN(C(=O)[C@@H]3CCCN3C(=O)Nc3ccc(-c4ccccc4)cc3)CC2)c1
  29	23
CCCCCCCn1c(CN2CC(C)OC(C)C2)nc2c1c(=O)n(C)c(=O)n2C (centres undefined)
  5	0
Cn1c(=O)c2c(nc3n2CC(C(C)(C)C)=NN3Cc2ccccc2F)n(C)c1=O
  -10	-13

# The list continues.
Compound | NPYLR7 ag | NPYLR7 ag max-min
N[C@@H]1c2ccccc2C2(CCN(C(=O)c3nccc4ccccc34)CC2)[C@H]1O | 12 | 10
COc1ccc(C2CC(=O)C3C(=Nc4ccccc4NC3c3cc(OC)ccc3OC)C2)cc1 (centres undefined) | 3 | 5
O=C(Cc1ccc(F)cc1)N(CCCn1ccnc1)c1nc2c(Cl)cccc2s1 | -16 | -25
CCCCC(=O)N(Cc1ccc(-c2ccccc2-c2nn[nH]n2)cc1)[C@H](C(=O)O)C(C)C | -2&6 | -6&-11
CCOC(=O)c1ccc(NC(=O)N(CCCOC)CC(=O)Nc2cc(C(C)(C)C)nn2-c2ccc(C)cc2C)cc1 | -4 | -12
C[C@@H]1CN(C(=O)C2CSC(c3cccc(Br)c3)N2C(=O)OC(C)(C)C)C[C@H](C)O1 (some centres undefined) | 18 | 2
CNc1nc2cnc(Nc3cccc(C(F)(F)F)c3)cc2n1CCOC | -1 | -9
CC(C)C(C(=O)N1CCOC(COCc2ccccc2F)C1)c1ccccc1 (centres undefined) | 21 | 23
C=CCOC(=O)CCN1C(=O)/C(=C/c2ccc(OC)cc2)SC1=S | -7 | -10
FC(F)(F)c1cccc(C2c3[nH]c4ccccc4c3CCN2Cc2ccn[nH]2)c1 (centres undefined) | 10 | 2
NS(=O)(=O)c1ccc(C(=O)NCCOc2cc(N3CCCC3)ncn2)cc1 | 2 | 1
CC(NC(=O)CNC(=O)COc1ccccc1)c1cccc(C(F)(F)F)c1 (centres undefined) | 11 | 4
Cc1oc(-c2cccs2)nc1CN1CCCC(CCC(=O)Nc2ccccc2F)C1 (centres undefined) | 3 | -5
COc1ccccc1N1CCN(c2ccc(NC(=O)Nc3ccc(Cl)cc3)cc2C(=O)N2CCCC2)CC1 | -1 | 3
CCCN(CC1CC1)c1nc(N)c(C#N)c(CC#N)c1C#N | 3 | 7
COc1ccc(OC)c(NS(=O)(=O)c2ccc3[nH]cc(C(=O)O)c(=O)c3c2)c1 | -2 | -5
Cc1ccc(-n2c(SCc3ccccc3C)nnc2C(C)NC(=O)NCc2ccccc2)cc1 (centres undefined) | -1 | 6
CC1C(=O)N(c2ccc(Oc3ccccc3)cc2)CCN1C(=O)c1ccco1 (centres undefined) | 0 | 4
CCC1CN(Cc2ncc(C)o2)C(CC)CN1Cc1ncc(C)o1 (centres undefined) | 2 | 8
O=C(C1CCCN(C2CCN(Cc3cc(=O)[nH]c(=O)[nH]3)CC2)C1)N1CCCC1 (centres undefined) | 0 | 0
CCn1cc(C(=O)N2CCN(C)CC2)c2nn(-c3ccccc3)c(=O)c-2c1 | 4 | 4
CCNC(=O)N1CCN(Cc2nc(-c3ccco3)oc2C)CC1 | -23 | -25
CC(SCC(=O)Nc1ccccc1)c1ccccc1 (centres undefined) | -24 | -26
O=C(CCCc1nc2ccccc2s1)N1CC2C3CCC(C3)C21 (centres undefined) | -11 | -12
CCc1ccc(C(C)NC(=O)CN2C(=O)NC3(CCCCC3)C2=O)cc1 (centres undefined) | 9 | 3
CCC(Sc1ncc(S(=O)(=O)c2ccccc2)c(N)n1)C(=O)Nc1ccc(C)c(C)c1 (centres undefined) | 7 | 8
CCC(c1cccnc1)N(C)C(=O)Cc1ccc(F)c(F)c1F (centres undefined) | -5 | -6
CC1(NC(=O)CN(CCc2cccs2)Cc2cccs2)CCS(=O)(=O)C1 (centres undefined) | 3 | 2
COCCn1c(C(=O)Nc2ccc(C(C)C)cc2)cc2c(=O)n(C)c(=O)n(C)c21 | 0 | -1
CCN(C)C(C(=O)NCc1n[nH]c(=S)n1C1CC1)c1ccccc1 (centres undefined) | -5 | -5
COCCN(Cc1ccccc1OS(=O)(=O)c1ccc(F)cc1)C(=O)Nc1ccccc1OC | 1 | 11
COCC(=O)N1CCC(Cc2ccc(OC)cc2)CC1 | 3 | 14
Cc1ccc2nc(-c3ccccc3C)c(NC(=O)Cc3ccc(F)cc3)n2c1 | -6 | 0
CCOc1ccc(-n2c(C)cn3c4c(=O)n(CC(C)=O)c(=O)n(C)c4nc23)cc1 | 16 | 6
O=C1c2ccccc2S(=O)(=O)N1Cc1nc(C23CC4CC(CC(C4)C2)C3)cs1 | 6 | 4
Cc1cc(NC(=O)Nc2ccc3c(ccn3C)c2)sn1 | 6 | -11
Cc1ccc(-c2nc(NC3CC3)sc2C)cc1C | 7 | 7
CN1OC(C)(CC(=O)NCc2nccs2)N=C1c1ccccc1Cl (centres undefined) | 2 | -1
Cc1ccn(CC(=O)N2CCCC(CCc3c(F)cccc3F)C2)n1 (centres undefined) | -1 | -4
CC(C)Nc1cc(N2CCCC(c3ccn[nH]3)C2)ncn1 (centres undefined) | 8 | 4
CCC(C)N(CC(=O)N(CCc1ccc(OC)c(OC)c1)Cc1ccco1)C(=O)Nc1ccc(F)c(F)c1 (centres undefined) | -4 | 8
CC(C)C(=O)NC1CCN(Cc2ccc(Cl)cc2)CC1 | 3 | 3
CN(C)C(CNS(=O)(=O)c1ccc(F)cc1F)c1cccn1C (centres undefined) | 8 | 8
COc1ccc(-c2cc(C(=O)NCCCN3CCOCC3)c(C)n2-c2cccc(OC)c2)cc1 | -7 | 0
COc1ccc(CCOC(=O)[C@@H]2CCCN2C(=O)c2ccc(C)c([N+](=O)[O-])c2)cc1OC | -7 | -14
CC(=O)c1c(-c2ccc(F)c(F)c2)c2cc(F)ccc2[nH]c1=O | -2 | 5
CC1=C(C(=O)OC(C)C)C(c2cccc([N+](=O)[O-])c2)C2=C(CCCC2=O)N1 (centres undefined) | 4 | 5
Cc1sc2ncnc(SCC(=O)c3c(N)n(CC(C)C)c(=O)n(C)c3=O)c2c1C | -2 | -3
O=C(CCNC(=O)c1ccco1)Nc1nc(-c2ccco2)c(-c2ccco2)s1 | 3 | 10
Cc1ccc(S(=O)(=O)N2CSCC2C(=O)N(C)C2CC2)cc1Cl (centres undefined) | 3 | 23
Cc1nc(C(C)N(C)Cc2ccc(-c3ccn[nH]3)o2)c(C)s1 (centres undefined) | -5 | -10
COCCN(Cc1ccc(OS(=O)(=O)c2ccc(OC)cc2)cc1)C(=O)CC(C)(C)C | 16 | 8
CCC1=NOC(Cn2c(=O)n(C(CC)CC)c3ncc(C(=O)O)cc32)C1 (centres undefined) | -2 | -6
COC(=O)C1CC(O)C(N2CCCC2c2cccc(N(C)C)c2)C1 (centres undefined) | 2 | 1
Cc1cccc(-c2n[nH]c(=S)n2-c2ccc(Cl)c(Cl)c2)c1 | -6 | -3
CCn1c(C2CCCN(C(=O)c3cc(CC(C)C)nc(C)n3)C2)n[nH]c1=O (centres undefined) | -8 | -8
Cc1ccc2nc(COC(=O)c3cc4c(s3)CCC4)cc(=O)n2c1 | 1 | 0
CC(C)(CCl)C(=O)N1CCSC1c1ccc(C(F)(F)F)cc1 (centres undefined) | -7 | -1
Cc1nc(CCCC(=O)N2CCN(C(=O)C3CCCC3)CC2)cs1 | -3 | -3
O=C(O)c1coc(CN(CCN2CCOCC2)Cc2ccc(Cl)c(Cl)c2)n1 | 15 | 22

# Screens as filed in PubChem.
